High-throughput results from PubChem.
H5N1 CPE – MDCK cell protection from H5N1 avian flu | cytopathic effect, luminescence, 72 h; active compounds read high; no value below 0 was filed and about half of the inactive calls have no number; reference of the scale not given here | inhibition, % at 50 µM | 0.07% of 96,000 active; in the data active = inhibition above about 25%
An asterisk follows results filed as active; i = inactive.

SMILES | H5N1 CPE
CCOC(=O)c1sc(NC(=O)CN(CC(C)C)CC(C)C)c(C(=O)OCC)c1C | 3.3
O=C(NCc1ccccn1)C1CCCN(Cc2cnn(-c3ccccc3)c2-n2cccc2)C1 (stereo not drawn) | i
O=c1c2c(nc(NCCO)n1CC1CCCCC1)-c1ccccc1CC21CCCC1 | i
O=C(O)CC1NC(=O)N(c2ccc(Cl)cc2)C1=O (stereo not drawn) | i
Cc1nc2ccccn2c1C(=O)CSc1ccccc1Cl | i
CC/C(=N\NC(=O)c1ccncc1)C12CC3CC(CC(C3)C1)C2 | 0.5
O=C(O)C1CCCCC1C(=O)NCCc1ccc(Cl)cc1 (stereo not drawn) | 0.5
O=C(c1cc(-c2cccs2)on1)N1CCN(C(c2ccccc2)c2ccccc2)CC1 | i
Cc1nc(C)c(C(=O)N/N=C/c2cn(C)c3ccccc23)s1 | 0.5
Cc1ccc(S(=O)(=O)Oc2ccc(/C=C3\N=C(c4cccc(C)c4)OC3=O)cc2)cc1 | i
CCCCNC(=O)COC(=O)c1cc2c(C)nn(-c3ccccc3)c2s1 | i
O=C(Cn1c(=O)oc2ccccc21)N(Cc1ccccc1)C1CCS(=O)(=O)C1 (stereo not drawn) | 1.2
CNC(=O)c1snnc1-c1ccccc1 | 0.4
CCNc1nc2c(c(=O)n(Cc3ccccc3)c(=O)n2C)n1Cc1ccccc1 | 0.8
Cc1occc1-c1nnc(SCC(=O)c2c(N)n(Cc3ccccc3)c(=O)n(C)c2=O)n1C | i
Cc1ccc(OCC2Cn3c(nc4c3c(=O)n(C)c(=O)n4C)O2)cc1 (stereo not drawn) | i
COc1cc2c(cc1NC(=O)CSc1nnc(COc3ccc(Cl)cc3)n1C)oc1ccccc12 | i
Cc1ccc(-n2ncc3c(NCC4CCCO4)ncnc32)c(C)c1 (stereo not drawn) | i
CC(=O)Nc1ccc(S(=O)(=O)NCc2ccc3[nH]c(C)cc3c2)cc1 | 4.4
Cc1nnc(Sc2nc3ccccc3o2)c2ccccc12 | 12
Cc1[nH]c2ccccc2c(=O)c1CN(C)Cc1ccccc1 | 1.0
Cc1ccc(S(=O)(=O)NC(=NCC(=O)O)c2ccc(F)cc2)cc1 | i
CCn1nc(C)cc1Nc1ccccc1 | i
COc1ccc(C2/C(=C(/O)c3ccccc3)C(=O)C(=O)N2CC(C)O)c(OC)c1 (stereo not drawn) | i
COc1cc(CN/C(C)=C(\C#N)C(N)=O)cc(OC)c1OC | i

The results go on:
SMILES | H5N1 CPE
Cc1ccc(Cl)cc1N1CCN(C(=O)Cc2c(C(=O)O)[nH]c3ccccc23)CC1 | 0.6
Cc1ccc(OCC(=O)Nc2ccc(S(=O)(=O)Nc3onc(C)c3C)cc2)cc1 | i
Cc1ccc(-c2c3c(=O)n(C)c(=O)n(C)c3cn2N2CCOCC2)cc1 | 1.6
CCn1c(SCC(=O)Nc2cc3oc4ccccc4c3cc2OC)nnc1-c1cccs1 | 0.5
C/C(=N\NS(=O)(=O)c1ccc(C)c([N+](=O)[O-])c1)c1cc2ccccc2o1 | 0.6
O=C(CSCc1ccc(F)cc1)NCc1ccco1 | i
O=C(c1ccco1)N1CCN(c2ncnc3scc(-c4ccccc4)c23)CC1 | 6.8
O=S(=O)(c1ccc(OCC(O)CN2CCCCC2)cc1)N1CCOCC1 (stereo not drawn) | 1.3
O=C1OCCC1Sc1nc(-c2ccccc2)cs1 (stereo not drawn) | i
C=C(C)[C@H]1CC=C(C)/C(=N/NC(=O)CNc2ccccc2OC)C1 | i
Cc1ccc(C(N)=O)cc1S(=O)(=O)Nc1cccc(C)c1C | i
Cc1cccc(C)c1NC(=O)CNc1ccccc1 | i
CCN(C(=O)COC(=O)c1cc(C)n(-c2ccc(F)cc2)c1C)C1CCS(=O)(=O)C1 (stereo not drawn) | 1.3
CCOc1ccc(C(C)=O)cc1N1C(=O)C2C3C=CC(C3=C(C)C)C2C1=O (stereo not drawn) | 0.1
COc1ccc(CN2C(=O)CN(C3CCCCCC3)C(=O)C2c2ccc(F)cc2)cc1 (stereo not drawn) | 0.8
O=c1ccsn1Cc1ccccc1 | 3.8
O=C(CSc1nc2ccccc2[nH]1)Nc1ccc2c(c1)OCCO2 | i
S=c1[nH]nc(-c2ccco2)n1-c1cccc2ccccc12 | 0.1
O=C1CSC(c2cn(-c3ccccc3)nc2-c2cccs2)N1Cc1ccccc1 (stereo not drawn) | 6.7
N#CCC(CNc1ncc(C(F)(F)F)cc1Cl)OC(=O)c1cccc([N+](=O)[O-])c1 (stereo not drawn) | 17
CC(C)(C)NC(=O)/C(=C\c1ccc(Br)cc1)NC(=O)c1cccs1 | i
Cc1cccc(N=Cc2c(O)n(-c3ccccc3C)c(=O)[nH]c2=O)c1 | i
CC1CCN(S(=O)(=O)N2CCC(C(=O)NCc3cccs3)CC2)CC1 | i
CCC(CO)NCc1ccc2c(c1)n(C)c(=O)n2C (stereo not drawn) | 1.0
COc1ccc(-c2cc(C(F)(F)F)n3nc(C(=O)N4CCOCC4)nc3n2)cc1 | i

Next part.
SMILES | H5N1 CPE
C=CCOc1ccccc1C1C2=C(CC(C)(C)CC2=O)Nc2c1c(=O)n(C)c(=O)n2C (stereo not drawn) | 0.9
Cn1nnnc1SCC(=O)c1ccc(Br)s1 | i
CCn1c(CSc2nc3ccccc3s2)nnc1SCC(=O)c1ccc(O)cc1O | 0.5
CCc1nnc(NC(=O)CSc2nc3cccnc3n2C2CCCCC2)s1 | 0.4
CCN(CC)c1ccc2c(c1)oc(=O)c1c(Cl)cc(=O)oc12 | i
CCc1c(C)nc(N)nc1N1N=C1SCC#N | 0.1
COC(=O)c1c(-c2cccc(OC)c2)csc1N | i
CCCCC(=O)Nc1nc(C)c(-c2csc(Nc3cc(OC)ccc3OC)n2)s1 | i
O=C(Cn1nc(-c2ccccc2)c2ccccc2c1=O)Nc1cccnc1 | i
CS(=O)(=O)N1CCN(C(=O)c2ccccc2F)CC1 | i
COC(=O)c1ccc(NS(=O)(=O)c2cccc3cccnc23)cc1 | 0.4
CC(=O)NCCn1c(SCC#N)nc2ccccc2c1=O | 1.1
COC(=O)/C=c1/s/c(=C(\C#N)C(=O)NCc2ccco2)n(-c2ccc(C)cc2)c1=O | i
COc1cc(CNCCN2CCOCC2)ccc1OCc1ccc(Cl)cc1Cl | i
O=C(Nc1nccs1)c1cc(S(=O)(=O)N2CCOCC2)c(Cl)cc1Cl | 0.3
CC(=O)c1ccc2c(c1)C1C=CCC1C(c1ccncc1)N2 (stereo not drawn) | 1.4
Cc1ccc(C(=O)Nc2ccc(C(=O)/C=C/c3cccs3)cc2)cc1 | i
CN1CCN(CCCNC(=O)C2CCN(c3nnc(-n4cccc4)s3)CC2)CC1 | 1.3
Nc1ccc2c(c1)C(=O)N(CCCC(=O)O)C2=O | i
CCOc1cc(C)c(C(C)C)cc1S(=O)(=O)N1CCOCC1 | 0.6
CN(C)CCNC(=O)c1ccc2c(c1)N(Cc1ccc(F)cc1)CCS2 | i
COc1ccc2cc3cc(C(=O)Nc4ccc5c(c4)OCCO5)oc3nc2c1 | i
Cc1cc(C)c(C)c(S(=O)(=O)NCC(=O)N2CCCC2)c1C | 1.1
CC(=O)NC(CCS(C)(=O)=O)C(=O)Nc1ccc(C)c(F)c1 (stereo not drawn) | 0.1
CCc1ccc(N2CSC3=C(C#N)C(c4cccs4)CC(=O)N3C2)cc1 (stereo not drawn) | i

Next entries.
SMILES | H5N1 CPE
O=C(Nc1ccc(-c2cc3ccccc3oc2=O)c(Cl)c1)c1cccnc1 | i
O=C(O)C1C2C=CC(C2)C1C(=O)OC1CC2CCC1C2 (stereo not drawn) | i
Cc1ccc(NCN2C(=O)C3CC=C(Cl)CC3C2=O)cc1 (stereo not drawn) | i
COC(=O)CSc1nc2ncc(Cl)cc2[nH]1 | i
CCn1nc(C(=O)NCCc2ccc(S(N)(=O)=O)cc2)c2ccccc2c1=O | i
C/C(=N\NC(=O)C1COc2ccccc2O1)c1cccs1 (stereo not drawn) | i
COC(=O)c1cc(N2C(=O)C3C(C2=O)C2(C)C=CC3(C)O2)ccc1Cl (stereo not drawn) | i
COCCNC(=O)CSc1nnc2c(Cl)cc(Cl)cn12 | 1.8
O=C(COC(=O)c1ccc2c(c1)OCO2)NCc1ccc2c(c1)OCO2 | 1.5
O=C(C1CCN(S(=O)(=O)N2CCOCC2)CC1)N1CCN(c2ccccc2)CC1 | 1.5
CC(C)C(=O)NCCn1ccc2ccccc21 | 0.3
C=CCn1c(N)c(C(=O)OCCC)c2nc3ccccc3nc21 | i
CC1(C)C(=O)OC(C(=O)c2ccccc2)C(C)(C)C1=O (stereo not drawn) | i
C=C(C)Cn1c(SCC#N)nc2ccccc2c1=O | 0.1
COCC(C)NC(=O)NC(=O)c1ccc(Cl)cc1 (stereo not drawn) | i
CC1(C)CC(=O)C=C(Nc2ccccc2NC(=O)c2cnccn2)C1 | 0.9
CN1CCN(CCCNC(=O)Cn2nc(-c3ccccc3)ccc2=O)CC1 | i
COC(=O)c1ccc(CSc2nnc(CNC(=O)c3cccs3)o2)o1 | 0.6
Cc1sc2c(c1C)c(=O)n(-c1ccc(F)cc1)c(=O)n2CC(=O)NCc1ccco1 | i
N#CC1=C(N)N(c2ccccc2)C(c2ccccc2)C1(C#N)C#N (stereo not drawn) | i
CCOC(=O)c1cnn(-c2ccccn2)c1N | i
CSc1nc(N)nc(SCC(=O)c2ccc(C)cc2)c1C#N | 0.9
CCSC1=NC(C)(C)C=C(/C=C/c2ccc(Cl)cc2Cl)N1 | i
CCOc1cc(CNc2ccc3cn[nH]c3c2)ccc1OC | i
Cc1cc2occ(CC(=O)O)c2cc1C | i

16 entries out of the list, sorted by heavy-atom count, largest number first:
SMILES | H5N1 CPE
Cc1sc2c(c1C)c(=O)n(-c1ccc(F)cc1)c(=O)n2CC(=O)NCc1ccco1 | i
O=C(C1CCN(S(=O)(=O)N2CCOCC2)CC1)N1CCN(c2ccccc2)CC1 | 1.5
CCn1nc(C(=O)NCCc2ccc(S(N)(=O)=O)cc2)c2ccccc2c1=O | i
O=C(Nc1ccc(-c2cc3ccccc3oc2=O)c(Cl)c1)c1cccnc1 | i
O=C(COC(=O)c1ccc2c(c1)OCO2)NCc1ccc2c(c1)OCO2 | 1.5
COC(=O)c1ccc(CSc2nnc(CNC(=O)c3cccs3)o2)o1 | 0.6
N#CC1=C(N)N(c2ccccc2)C(c2ccccc2)C1(C#N)C#N (stereo not drawn) | i
C=CCn1c(N)c(C(=O)OCCC)c2nc3ccccc3nc21 | i
CSc1nc(N)nc(SCC(=O)c2ccc(C)cc2)c1C#N | 0.9
C/C(=N\NC(=O)C1COc2ccccc2O1)c1cccs1 (stereo not drawn) | i
COCCNC(=O)CSc1nnc2c(Cl)cc(Cl)cn12 | 1.8
C=C(C)Cn1c(SCC#N)nc2ccccc2c1=O | 0.1
COCC(C)NC(=O)NC(=O)c1ccc(Cl)cc1 (stereo not drawn) | i
CC(C)C(=O)NCCn1ccc2ccccc21 | 0.3
COC(=O)CSc1nc2ncc(Cl)cc2[nH]1 | i
Cc1cc2occ(CC(=O)O)c2cc1C | i

Later entries.
SMILES | H5N1 CPE
COC(=O)Cn1nc(-c2ccccc2)c2ccccc2c1=O | i
C=CCNC(=O)c1onc(CSc2ccc(OC)cc2)c1C(=O)O | 0.2
CC(=O)Nc1c(C)ccc2nsnc12 | 0.2
CNc1oc(-c2ccco2)nc1C#N | 1.9
Cc1cc(/C=C2\SC(N)=NC2=O)c(C)n1-c1ccccc1 | i
O=C(O)c1ccc(COc2ccccc2Cl)cc1 | 1.1
CC(=O)[C@@H]1[C@@H]2C(=O)N(C3CCCCC3)C(=O)[C@@H]2C2c3ccccc3C=CN21 (stereo partly drawn) | i
Cc1nc(NC(CC(C)C)C(=O)O)c2nc(C)oc2n1 (stereo not drawn) | 0.7
CC(=O)c1c(C)c[nH]c1C | 0.7
CC(C(=O)Nc1ccccc1-c1ccccc1)N1CCCCC1 (stereo not drawn) | 0.6
Cn1c(NC(=O)c2cccc(Cn3cc(Cl)cn3)c2)nc2ccccc21 | i
COc1ccc(/C(O)=C2/C(=O)C(=O)N(CCN(C)C)C2c2ccc(F)cc2)cc1Cl (stereo not drawn) | i
O=C1CC(c2cc3c(cc2Br)OCO3)C2=C(CCCC2=O)N1 (stereo not drawn) | 0.3
CCNC(=O)CN(C1CCCCC1)S(=O)(=O)c1ccc(F)cc1 | 0.2
CC(C)=CC(=O)Nc1nnc(-c2ccc(F)cc2)s1 | i
CCOC(=O)C1=C(CN2CCSCC2)NC(=O)NC1c1cc(C)ccc1C (stereo not drawn) | i
CC(Sc1nnc(N)s1)c1ccccc1Cl (stereo not drawn) | i
CC(/C=N/O)Cc1ccc2c(c1)OCO2 (stereo not drawn) | i
Cc1ccc(SCc2cc(-c3ccc(Cl)cc3)on2)cc1 | 1.2
COc1cc2c(cc1OC)C(=O)CC(C)S2 (stereo not drawn) | i
Cc1ccc(NC(=O)CS(=O)(=O)c2c[nH]c3ccccc23)c(C)c1 | i
O=C(CSc1ccccn1)c1ccc2c(c1)OCO2 | 0.4
CCCc1cc(=O)n2[nH]cnc2n1 | 0.7
CN1CCc2nc3ccc(F)cc3c(C(N)=O)c2C1 | 1.1
O=S(=O)(c1ccccc1)N1CCCCC1c1cccnc1 (stereo not drawn) | 1.5

The list goes on:
SMILES | H5N1 CPE
CC1(C(=O)OCC(=O)c2c[nH]c3ccccc23)CC1(Cl)Cl (stereo not drawn) | 1.0
COCC(C)n1c(C)cc(C(=O)COC(=O)c2c(C)nn(-c3ccccc3)c2C)c1C (stereo not drawn) | 0.3
C=CCNC(=O)c1sc(=S)n(-c2ccc(C(=O)OCC)cc2)c1N | i
O=c1[nH]c(N2CCOCC2)nc2c1CCCC2 | 0.4
COc1ccc(-c2nc(C#N)c(NC(C)c3ccccc3)o2)cc1OC (stereo not drawn) | i
Nn1cc(-c2ccccc2)nc1SCC(=O)N1CCN(S(=O)(=O)c2ccc3ccccc3c2)CC1 | i

These rows are one share of the data; the hit share may differ from the screen's.
